# Assay outcomes as filed in PubChem BioAssay.
# Cruzain inh Det – inhibitors of Trypanosoma cruzi cruzain with detergent | P25779 | purified cruzain, Z-FR-AMC fluorescence, 0.01% Triton | Potency, µM, for inactives: max response, negative = inhibition, hits mostly inhibitors | 200,000 compounds, 0.43% hits | AID 1478;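 note: plate controls were neutral wells for no effect and buffer without enzyme for full effect; nearly all actives have a fitted effect of over 40% in size; top concentration of the series not given in the record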
# Target sequence (P25779 123-467 limits assumed): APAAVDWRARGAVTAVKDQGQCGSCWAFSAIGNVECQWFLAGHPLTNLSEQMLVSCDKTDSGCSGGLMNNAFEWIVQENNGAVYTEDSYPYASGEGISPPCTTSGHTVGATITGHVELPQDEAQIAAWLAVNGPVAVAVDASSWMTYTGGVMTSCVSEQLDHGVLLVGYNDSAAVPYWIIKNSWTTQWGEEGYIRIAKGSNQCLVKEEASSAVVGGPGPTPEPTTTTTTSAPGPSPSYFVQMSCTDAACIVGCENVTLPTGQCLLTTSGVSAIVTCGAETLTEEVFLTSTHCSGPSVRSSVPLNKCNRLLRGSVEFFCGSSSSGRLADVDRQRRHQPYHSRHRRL
#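 Detergent-containing arm of a paired screen for aggregation-based inhibition: 0.01% Triton X-100 present. Cruzain at 1.5 nM cleaved 2 uM Z-FR-AMC at pH 5.5 with 5 mM DTT; AMC fluorescence gain over 60 s measured activity.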
# NS1 function inh – blocks influenza NS1 protein function; S. cerevisiae slowed by influenza A NS1, growth recovery by OD600; Potency, µM (doses to about 46.1 µM), without a hit: at the top dose activity, positive = more growth; 270,000 compounds, 0.4% hits; AID 2326; active means well fitted rising curve with a large enough effect; inconclusive means small, poorly fitted or top-dose-only effect; inactive means no such curve, though single readings can be large or run the other way; note: nearly all actives have a fitted effect of over 50% in size
#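 A cell-based growth assay was used: compounds that relieve NS1-induced slow growth of budding yeast raise OD600. Assay medium was yeast nitrogen base with ammonium sulphate and -URA supplement, pH 6.0, with 2% galactose.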
# LASV entry inh – inhibitors of Lassa virus binding or cell entry | Lassa virus pseudotype entry inhibition, cell reporter; control for the full effect not named in the record | Potency, µM (highest dose often 37.9 µM), for the others: at the top dose activity change, negative = inhibition, usual class: inhibitors | 300,000 compounds, 1.2% hits | AID 540256; active means well fitted inhibition curve with a large enough effect; inconclusive means small, poorly fitted or top-dose-only effect, or effect the other way; inactive means flat fitted curve, though single readings scatter; tested in HEK293 cells; note: % is set by controls: 0 for no effect and ±100 for the full control effect; nearly all actives have a fitted effect of over 50% in size; luciferase read-out
# SARS PLP yeast – blocks SARS-CoV papain-like protease in a yeast assay; S. cerevisiae expressing SARS-CoV PLpro, growth rescue; control for the full effect not named in the record; Potency, µM (series often up to 32.9 µM), for the others: at the top dose activity, positive = growth rescue; 330,000 compounds, 0.19% hits; AID 485353; active means well fitted rising curve with a large enough effect; inconclusive means small, poorly fitted or top-dose-only effect; inactive means no such curve, though single readings can be large or run the other way; note: 0% is about no effect; nearly all actives have a fitted effect of over 55% in size; growth read by luminescence after 48 h
# Cruzain inh noDet – blocks cruzain activity in detergent-free assay; purified cruzain, Z-FR-AMC fluorescence, no detergent; Potency, µM, for the others: max response, negative = inhibition, actives largely listed as inhibitors; P25779; 200,000 compounds, 2.3% hits; AID 1476;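 note: plate controls were enzyme without inhibitor for no effect and buffer without enzyme for full effect; nearly all actives have a fitted effect of over 40% in size; top concentration of the series not given in the record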
#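 Detergent-free condition (0.00005% Triton X-100) in acetate buffer pH 5.5 with DTT. 1.5 nM enzyme and compound were pre-mixed 15 min, then 2 uM Z-FR-AMC substrate added; reaction progress from fluorescence change between first and third reads (60 s).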
# Marburg entry inh – inhibitors of Marburg virus binding or cell entry | AID 540276 | 300,000 compounds, 1.8% hits | Potency, µM (top dose mostly 37.8 µM), without a hit: at the highest dose activity change, negative = inhibition, most hits filed as inhibitors | Marburg virus pseudotyped entry inhibition, cell reporter; control for the full effect not named in the record; about a third of the inactives were read at about 46 µM; active = well fitted inhibition curve with a large enough effect; inconclusive = small, poorly fitted or top-dose-only effect, or effect the other way; inactive = flat fitted curve, though single readings scatter; tested in HEK293 cells; about a fifth of its hits are not listed in these tables; note: % is set by controls: 0 for no effect and ±100 for the full control effect; luciferase read-out
# RE007 growth inh – less growth of the S. pombe RE007 Vpr strain. S. pombe RE007 Vpr strain, BacTiter-Glo ATP luminescence, 24 h; control for the full effect not named in the record. Potency, µM (titrated, usually from 92.2 µM), for the others: at the top dose activity change, negative = less growth. 360,000 compounds, 0.21% hits. AID 651644; active = well fitted falling curve with a large enough effect; inconclusive = small, poorly fitted or top-dose-only effect; inactive = no such curve, though single readings can be large or run the other way;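 note: % is set by controls: 0 for no effect and ±100 for the full control effect; nearly all actives have a fitted effect of over 50% in size; the assay follows cell death caused by Vpr and the record does not say whether a fall means rescue or toxicity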
#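 Fission yeast RE007 carrying one integrated HIV-1 vpr copy, seeded at OD 0.01 in PMG+AL medium with 23 nL pinned compound. Grown 24 h at 30 degrees; viability read by BacTiter-Glo luminescence after 5 min.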
# StopGo reporter – FMDV 2A StopGo reporter, luciferase signal | 410,000 compounds, 1.2% hits | human cells with a luciferase reporter of 2A StopGo recoding; control for the full effect not named in the record | Potency, µM (top dose mostly 57.9 µM), inactives show at the highest dose signal change, negative = less light; active = well fitted falling curve with a large enough effect; inconclusive = small, poorly fitted or top-dose-only effect; inactive = no such curve, though single readings can be large or run the other way; tested in HEK293T cells; note: % is set by controls: 0 for no effect and ±100 for the full control effect; nearly all actives have a fitted effect of over 45% in size; luciferase light after 4 h
# * marks the source's active call; other numbers are inactive results; ? = inconclusive; · = no result given; & = joins results of further samples; [ ] = remark or other dose. Unless noted, calls come from the whole dose curve; as a rule, active = well fitted curve in the direction sought with a large enough effect; inconclusive = small, poorly fitted or top-dose-only effect, or another doubt; inactive = no such curve, though single readings can be large; an effect the other way counts as inactive or inconclusive. Potency is the fitted concentration of half-maximal effect.
SMILES	StopGo reporter	Cruzain inh Det	LASV entry inh	NS1 function inh	RE007 growth inh	Cruzain inh noDet	SARS PLP yeast	Marburg entry inh
COc1ccc(C(=O)Nc2ccc(NC(=O)c3cccs3)cc2)cc1[N+](=O)[O-]	-8%	2.7%	-13%	-2%	0%	-16%	-3%	-28%
COc1ccccc1NC(=O)CCSc1nnc(-c2ccncc2)o1	-15%	·	-3%	·	3%	·	1%	23%
O=C1CC(c2cccnc2)c2cc3c(cc2N1)OCCO3 (centres undefined)	-4%	5.1%	·	22%	5%	2%	-2%	·
CC1C(=O)N(c2ccc(S(=O)(=O)N(C)C)cc2)C1(/C=C/c1ccccc1)C(=O)NC1CCCC1 (centres undefined)	-8%	-4.1%	?	8.9µM*	-8%	3%	-8%	?
Cc1ccsc1CN(C)CC(=O)Nc1ccc([N+](=O)[O-])cc1Cl	-14%	·	?	-7%	-18%	·	-33%	10µM*
CONc1nc2nonc2nc1NOC	0%	-1.3%	-2%	-6%	-1%	13%	20%	-8%
Nc1ccc2c(c1)Cc1ccccc1-2	33%[activator]	-4.3%	?	15%	-16%	-6%	-4%	-5%
COc1cccc(-c2cc(C(=O)Nc3ccc(OC)c(OC)c3)no2)c1	-22%	-4.2%	-2%	-16%	0%	8%	4%	1%
CC1(C)CN=C(NC2CCCCC2)S1	·	-2.0%	4%	-1%	8%	-2%	4%	-8%
O=C(CSC1=NS(=O)(=O)c2ccccc2N1)Nc1ccc(F)cc1	-3%	·	19%	·	2%	·	13%	6%[46.1 µM]
Cc1c(NC(=O)Nc2cccc(C#N)c2)c(=O)n(-c2ccccc2)n1C	-10%	·	·	4%	3%	·	-1%	·
CN(C(=O)c1ccncc1)c1nnc(-c2cnccn2)s1	33%[activator]	-4.2%	11%	7%	-2%	-3%	0%	15%
CC(=O)NCCNC(=O)CNC(=O)c1ccc(Cl)cc1	-15%	-0.2%	4%	2%	13%	-5%	12%	12%
Cc1nnc(NC(=O)C(C)Sc2nnc(-c3ccco3)n2C)s1 (centres undefined)	0%	·	-7%	25%	2%	·	-1%	21%[46.1 µM]
COc1ccccc1CN1CCN(C(c2ccccc2)c2ccccc2)CC1	?	·	·	-10%	-7%	·	3%	·
CCn1c(=O)c(C(=O)Nc2cnccn2)c(O)c2ccccc21	·	-6.1%	·	-148%	·	26%	-1%	0%
Cc1cccc(C(C#N)c2ccc(Cl)nn2)c1 (centres undefined)	36%[activator]	·	?	·	4%	·	0%	?
CC(C)OCCCn1c(=O)c2ccccc2n2c(CCC(=O)NC3CCN(Cc4ccccc4)CC3)nnc12	-14%	·	1%[46.1 µM]	1%	-3%	·	3%	-20%[46.1 µM]
Cc1cc(C)n2nc(SCC(=O)N3CC(C)CC(C)C3)nc2n1 (centres undefined)	-15%	·	-6%	·	8%	·	0%	5%
O=C(COC(=O)c1c2c(nc3ccccc13)CCCCC2)c1ccc(Cl)s1	8%	-3.4%	10%	4%	-4%	-14%	-55%	7%
Cc1cccc(C)c1NC(=O)C1CCCNC1 (centres undefined)	-6%	3.9%	-23%	2%	0%	-2%	1%	10%
CCOC(=O)CCc1c(C)n(CC)c2ncnn2c1=O	-11%	-4.1%	2%	-2%	6%	-8%	3%	?
CC(=O)c1ccc(NC(=O)C2(S(=O)(=O)c3ccccc3)CC2)cc1	13%	·	?	·	2%	·	1%	?
O=c1cc(N2CCN(c3ccc(F)cc3)CC2)[nH]c(=O)n1Cc1ccc(F)cc1	-21%	-0.4%	·	13%	4%	1%	1%	·
C=CCN1C(=O)NC2(O)C(=O)c3ccccc3C12O (centres undefined)	-19%	7.1%	-3%	11%	13%	-4%	3%	21%
COc1ccc(CCNC(=O)CCC(=O)Nc2ccccc2[N+](=O)[O-])cc1OC	-6%	·	·	?	-4%	·	0%	·
O=C(Nc1ccccc1)Nc1nnc(CSCc2ccccc2Cl)s1	0%	-2.8%	-5%	-3%	13%	?	10%	-2%
Cc1cc(NC(=S)NC(=O)c2ccco2)c2ccccc2n1	?	·	-20%	·	-20%	·	0%	?
CCOc1ccc(NC(=O)CSCC(=O)O)cc1	-5%	3.8%	3%	2%	-13%[3.69 µM]	-4%	?	13%
O=C(CNC(=O)c1ccccc1)Sc1ccccc1	-4%	·	19%[46.1 µM]	·	?	·	·	7%[46.1 µM]
CCOc1ncccc1C(=O)NCCCSc1ccccc1	-22%	·	-4%	-11%	13%	·	0%	?
COc1ccc(S(=O)(=O)N2CCN(Cc3ccc(Cl)cc3)CC2)cc1	·	-6.7%	?	-20%	9%	-3%	-1%	?
COc1cccc(N2CCN(c3ccc(N4C(=O)CCC4=O)cc3[N+](=O)[O-])CC2)c1	?	·	-3%	·	?	·	2%	1%[46.1 µM]
CC1CCc2sc3c(c2C1)c1ncnn1c(=O)n3CC(=O)c1ccc(Br)cc1 (centres undefined)	0%	·	18%	13%	0%	·	·	4%&4%
Cc1cc(C(=O)Nc2ccc(F)c(Cl)c2)on1	21%	·	-3%	3%	1%	·	-3%	-2%[46.1 µM]
C=CCn1c(SCc2ccc(F)cc2)nc2c1c(=O)[nH]c(=O)n2C	?	-1.1%	·	-12%	1%	-8%	-6%	-3%
O=C(Nc1ccc(F)cc1F)c1sccc1SCc1cccc(C(F)(F)F)c1	-15%	-3.8%	14%	-9%	8%	-7%	0%	-24%
CN(Cc1ccccc1)C(=O)c1nc2ccccn2c1CNCCOc1cccnc1	-14%	·	·	-4%	-5%	·	0%	·
OCCNCCNCc1ccccc1OCc1ccccc1	3%	·	·	3%	9%	·	0%	·
CC(NC(=O)NC1CCCCC1)C(c1cccs1)N1CCOCC1 (centres undefined)	-28%	-2.2%	·	2%	0%	-12%	3%	·
NC1=NC2(CCCC2)N=C(Nc2ccccc2)N1	0%	·	19%	4%	4%	·	0%	6%[46.1 µM]
Cc1ccc(S(=O)(=O)N(C)CC(=O)OCC(=O)NC(=O)NC(C)C)cc1	-10%	·	3%	-7%	2%	·	-1%	-3%[46.1 µM]
Cn1c(=O)c(=O)n(C)c2cc(S(=O)(=O)N3CCCCC3)ccc21	19%	1.8%	-1%	-5%	3%	-4%	2%	24%
O=C(COc1ccc(NC(=O)c2cccs2)cc1)c1ccc(F)cc1	-23%	·	-10%	7%	-7%	·	-4%	-12%
CC(C)CN(C(=O)COc1ccc(Br)cc1C=O)C1CCS(=O)(=O)C1 (centres undefined)	-16%	·	-4%	·	7%	·	3%	-9%
COc1cc(-c2csc(N3CCOCC3)n2)cc(OC)c1OC	-12%	1.7%	-9%	-8%	-23%	6%	23%	-3%
O=C(NCc1cccs1)C1CC(=O)N(c2ccc(Cl)cc2)C1 (centres undefined)	21%	·	28%	-2%	9%	·	1%	8%[46.1 µM]
CCOc1nc(-c2ccncc2)nc2ccccc12	-17%	-4.0%	9%	-22%	-17%	-6%	-15%	?
COCCNC(=O)CSc1ccccc1C(=O)NC1CCCc2ccccc21 (centres undefined)	14%	·	6%	12%	2%	·	1%	-3%[46.1 µM]
CC1CCc2c(sc(NC(=S)NC(=O)c3ccccc3)c2C#N)C1 (centres undefined)	46%[activator]	·	·	7.9µM*	-8%	·	2%	·

# Next section:
SMILES	StopGo reporter	Cruzain inh Det	LASV entry inh	NS1 function inh	RE007 growth inh	Cruzain inh noDet	SARS PLP yeast	Marburg entry inh
Cc1cc(Cl)ccc1NC(=O)Cn1cncn1	-2%	·	-6%[46.1 µM]	-1%	13%	·	2%	20%[46.1 µM]
Cc1ccc(N(C)S(=O)(=O)c2ccc(-c3cnc(C4CC4)o3)cc2)cc1	-9%&0%	-2.9%	1.4µM*	8%	10%	22%	-5%	·
CCC(=O)Nc1cc(NC(=O)CSc2nnc(C(C)C)n2CC)ccc1C	-3%	0.1%	11%	0%	-11%	3%	-8%	-1%
CCSc1ccccc1C(=O)N=C1NC(=O)CC2C(=O)NCCN12 (centres undefined)	-9%	·	?	·	9%	·	1%	6%[46.1 µM]
COc1ccc(/C=C(\C)c2nc(C)c(-c3ccccc3)c(=O)[nH]2)cc1	-3%	·	6%[46.1 µM]	-13%	1%	·	0%	-2%[46.1 µM]
O=C(NCCCn1ccnc1)C(=O)NCC1OCCCN1S(=O)(=O)c1ccc(Cl)cc1 (centres undefined)	-16%	-0.7%	-11%	0%	15%	1%	14%	6%
CN(NC(=S)Nc1ccc(OC(F)F)cc1)C(=S)Nc1ccc(OC(F)F)cc1	8%	-6.2%	?	-19%	-10%	11%	-3%	8%[46.1 µM]
O=c1cnn([C@@H]2O[C@H](CO)[C@@H](O)[C@H]2O)c(=O)[nH]1	-6%	-0.3%	0.092µM*	-42%	-14%	3%	-8%	?
Cc1ccccc1CNC(=O)CCCn1c(=O)c2cccn2c2cccnc21	-2%	-4.8%	16%[46.1 µM]	·	·	-5%	·	·
CCc1ccc(C(=O)Cn2ncc(Cl)c(Cl)c2=O)cc1	?	0.1%	?	3%	6%	-7%	1%	?
c1ccc(CN2CCC(N3CCN(Cc4ccc5c(c4)OCO5)CC3)CC2)cc1	?	·	?	-1%	-13%	·	0%	?
Cc1ccc(SCC(=O)N(Cc2nc(-c3ccccc3)no2)C(C)C)cc1	-28%	-7.0%	?	-10%	22%	10%	-5%	-15%
COc1ccc(NC(=O)Oc2cc(C)ccc2C(C)C)cc1	-23%	·	0%	-3%	-7%	·	-3%	1%[46.1 µM]
COc1ccc2cc3cc(C(=O)N4CCCCC4C)oc3nc2c1 (centres undefined)	2%	·	·	6%	-24%	·	?	·
Cc1c(C(=O)NCCSCc2cccc(C(F)(F)F)c2)cnn1-c1ccc(F)cc1	-29%	·	·	-1%	-19%	·	-2%	·
